High-throughput results (PubChem BioAssay)
Calb FLC: affects C. albicans growth with fluconazole; C. albicans CaCi-2 (fluconazole-resistant clinical isolate) + fluconazole, Alamar Blue growth, 48 h; growth inhibition, % (no concentration beside the values); 300,000 tested, 0.57% active;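 active means most replicates above 75%; inconclusive means exactly half above 75%; inactive means most below 75%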;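 further: all wells also contain fluconazole at 8 µg/ml as a sub-toxic cotreatment; 0% = median of DMSO wells and 100% = median of geldanamycin control wells; wells of about 8 µL received 7.5 nL stock; the first replicate is given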
Beta2AR agonist: activates human beta-2 adrenergic receptor causing internalization; response, % (concentration not given with the values); 340,000 tested, 0.43% active; Am2.2-beta2AR cells, FAP receptor internalization, flow cytometry; reference of the scale not given here; AID 504454;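 active means response above a set limit, near 3 SD of response in nonfluorescent compounds, cut at about 42% in these data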;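 further: stock transfer was 100 nL into about 11 µL; a reference agonist was the positive control; negative values mostly stem from fluorescent compounds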
Target sequence (P07550 whole entry, looked up): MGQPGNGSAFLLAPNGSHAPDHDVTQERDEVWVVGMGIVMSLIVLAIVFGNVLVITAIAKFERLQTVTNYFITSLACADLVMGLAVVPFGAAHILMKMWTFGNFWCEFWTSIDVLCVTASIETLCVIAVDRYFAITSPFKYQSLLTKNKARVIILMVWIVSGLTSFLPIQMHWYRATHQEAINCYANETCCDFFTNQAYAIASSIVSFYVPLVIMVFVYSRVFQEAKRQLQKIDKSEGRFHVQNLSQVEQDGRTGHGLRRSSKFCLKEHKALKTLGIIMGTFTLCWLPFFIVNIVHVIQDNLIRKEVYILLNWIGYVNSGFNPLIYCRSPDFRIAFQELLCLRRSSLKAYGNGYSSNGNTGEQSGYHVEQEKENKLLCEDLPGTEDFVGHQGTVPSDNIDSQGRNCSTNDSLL
Beta apoptosis: blocks beta cell apoptosis | 300,000 tested, 0.8% active | protection from apoptosis, % (test concentration not listed) | INS-1E cytokine-induced death, ATP luminescence, 48 h; percent of positive-control rescue, neutral wells zero | AID 435005;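 active means all replicates at 75% or more, or half of them and the mean; inconclusive means half reach 75% but not the mean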;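 further: 0% = cytokine-treated negative control wells and 100% = positive control rescue; higher means more ATP so stronger rescue from cytokine killing; wells of about 40 µL received 100 nL stock; the first replicate is given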
T cruzi inh: blocks replication of Trypanosoma cruzi | inhibition, % (concentration not given with the values) | T. cruzi beta-gal in NIH3T3, luminescence, 90 h | AID 1885 | 300,000 tested, 1.4% active;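 active means mean inhibition across valid replicates above about 55%, limit read from the data; inconclusive means mean below that limit but half or more replicates reach it; inactive means mean below it, under half of replicates reach it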;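 further: signal also drops with host cell toxicity which is not excluded here; 0% = plate median of DMSO wells and 100% = zero luminescence signal; higher percent means less beta-gal luminescence so fewer parasites; stock transfer was 50 nL into about 50 µL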
RanGTP-Impb inh: disruptors of Ran-importin-beta complex formation – biochemical, FRET, CFP-Ran, YFP-importin-beta, homogeneous, primary screen; cell-free CFP-Ran/YFP-importin-beta FRET ratio; inhibition, % (test concentration not listed); 300,000 tested, 1.1% active; AID 2216;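 active means most replicates above 15%; inconclusive means exactly half above 15%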;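 further: 0% = DMSO wells and 100% = Ran loaded with GDP instead of GTP; wells of about 40 µL received 100 nL stock; the first replicate is given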
UCH37 DUB inh: inhibitors of human deubiquitinating enzyme UCH37; purified proteasome/UCH37, Ub-AMC cleavage fluorescence; inhibition, % (concentration not given with the values); 330,000 tested, 0.33% active; AID 588478;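 active means mean of two replicates above 20%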;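 further: 0% = compound-free wells with enzyme and 100% = wells lacking proteasome; stock transfer was 100 nL into about 20 µL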
Target sequence (Q9Y5K5 whole entry, looked up): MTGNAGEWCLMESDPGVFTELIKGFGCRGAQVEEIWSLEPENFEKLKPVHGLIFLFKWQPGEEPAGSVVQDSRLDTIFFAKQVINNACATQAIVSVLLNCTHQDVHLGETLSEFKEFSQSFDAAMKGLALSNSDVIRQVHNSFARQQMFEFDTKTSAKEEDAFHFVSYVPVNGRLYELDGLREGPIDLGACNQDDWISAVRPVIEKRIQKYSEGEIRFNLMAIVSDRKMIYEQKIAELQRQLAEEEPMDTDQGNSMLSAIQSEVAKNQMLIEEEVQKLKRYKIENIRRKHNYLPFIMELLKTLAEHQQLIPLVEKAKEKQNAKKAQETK
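Assay system: Proteasome-bound UCH37. Buffer or medium: pH 7.4 Tris-HCl (50 mM) with ovalbumin, ATP-MgCl2, DTT. Incubation: 30 min preincubation with enzyme, 25 min cleavage at room temperature. Measured by: fluorescence, ex 355 nm, em 460 nm. Read-out basis: percent inhibition. Control set: wells without proteasome as full block, compound-free enzyme plus substrate as uninhibited.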
Bfl-1 A1 inh: inhibitors of the anti-apoptotic protein A1, read as caspase activation | MEF A1-2A-BIM cells, Caspase-Glo 3/7 luminescence, 3 h; percent of clofoctol response, vehicle zero | caspase activation, % (concentration not given with the values) | 330,000 tested, 0.066% active | AID 2462;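 active means over half of replicate activation scores above 10%, or exactly half above 10 with the replicate mean above 10; inconclusive means replicate mean below 10 yet half the replicates above 10; inactive means over half of replicates below 10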;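 further: wells of about 30 µL received 50 nL stock; many hits fall short of the cut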
LANA-H2B inh: blocks KSHV LANA binding to histone H2A/H2B; Q9QR71; cell-free LANA-H2A/H2B peptide, fluorescence polarization; inhibition, % (test concentration not listed); 320,000 tested, 0.6% active; in the data active means inhibition mostly above about 10%, no sharp cut-off; inactive means mostly below about 6.7%;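 further: stock transfer was 7.5 nL into about 10 µL; 0% = median of vehicle wells and 100% = median of positive control wells; one replicate is shown; the record names a cut of 25% in any replicate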
An asterisk follows results filed as active; ? = inconclusive; / = not tested or not shown.

Values in the order: Calb FLC	Beta2AR agonist	Beta apoptosis	T cruzi inh	RanGTP-Impb inh	UCH37 DUB inh	Bfl-1 A1 inh	LANA-H2B inh
(1) Cc1cccc(N=Nc2c(C)[nH]n(-c3ccccc3)c2=O)c1
  1	2	-3	1	-0.5	6.7	-0.3	-1.6
(2) CN=C1S/C(=C\c2cccn2-c2cccc(Br)c2)C(=O)N1C
  25	/	/	-10	-2.1	-39	1.2	2.6
(3) COc1cccc(NC(=O)C2CC(=O)N(C)C(=Nc3cccc(F)c3)S2)c1 (stereo not given)
  -8	-1	/	10	3.7	3.3	0.1	1.6
(4) O=S1(=O)CCO[C@H]2Cc3ccccc3[C@H]2N1Cc1ccccc1
  -6	1	-4	-6	-2.1	0.5	0.1	-5.5
(5) COc1ccccc1NC(=O)c1cc2c(s1)-c1ccccc1S(=O)(=O)C2
  1	17	-2	8	-1.9	-19	1.9	-6.2
(6) Cc1ccc(-c2nnc(CCC(=O)N(C)Cc3nccs3)o2)s1
  14	-8	-3	-16	0.1	-0.7	-1.0	0.6
(7) Cc1ccc(NC(=O)CSc2ncn[nH]2)cc1S(=O)(=O)N1CCOCC1
  5	-4	-2	-19	3.0	0.6	-0.9	4.5
(8) COCc1[nH]nc2c1C(c1ccnc3ccccc13)C(C#N)=C(N)O2 (stereo not given)
  1	-11	-7	-23	-6.0	8.1	0.7	3.3
(9) Cn1c(SCc2ccccc2F)nc2cccnc21
  18	-13	-9	-12	0.9	4.8	-5.2	-0.4
(10) Cc1ccc(NS(=O)(=O)c2ccc3[nH]c(=O)c(=O)[nH]c3c2)cc1Cl
  0	3	-2	-9	-5.0	2.8	-0.5	7.8
(11) C=CCn1c(C)cc(C(=O)COc2ccc(S(=O)(=O)N3CCCC3)cc2[N+](=O)[O-])c1C
  -14	-6	5	10	-0.9	-0.4	1.4	-3.7
(12) COc1cc(/C=N/Nc2ccc([N+](=O)[O-])cc2S(=O)(=O)N2CCOCC2)cc(OC)c1OC
  3	7	7	5	-14	/	-0.9	7.9
(13) CC1O[C@@H](OC2C(COC3OC(CO)C(O)[C@H](O)C3O)OC(OC3CC[C@]4(C)C(CC[C@@]5(C)[C@@H]4CC=C4[C@@H]6CC(C)(C)CC[C@]6(CO)C(O)C[C@]45C)C3(C)C)C(O)C2O)C(O)C(O)C1O (stereo not given in full)
  /	3	-3	/	/	0.1	0.3	-1.4
(14) CC(C)c1nc2sc3c(=O)[nH]c(=S)[nH]c3c2c2c1CCC2
  14	/	/	-1	2.5	7.3	/	/
(15) CC(=O)c1cc2c(cc1NC(=O)Cc1c(C)noc1C)OCO2
  /	3	-6	/	/	-18	0.1	-1.8
(16) O=c1oc(C2(O)CCCCC2)cc2ccc(-c3ccc4[nH]ccc4c3)cc12
  /	10	3	/	/	-1.8	-9.3	4.1
(17) Cc1ccc(CNC(=O)C2CCCN2C(=O)Nc2ccccc2)cc1 (stereo not given)
  7	-3	-3	?	-2.2	0.6	1.1	0.2
(18) O=C(O)c1cccc2c1C(=O)c1ccc(-c3ccc(F)cc3OCc3ccccc3)cc1S2(=O)=O
  /	-1	0	/	/	-1.8	0.2	-1.5
(19) O=C(CSc1nnc(NC(=O)c2ccccc2[N+](=O)[O-])s1)NC1CCCC1
  6	0	2	-1	-0.7	/	-0.3	2.9
(20) Cc1cccc(-c2ocnc2C(=O)Nc2ccccc2NC(=O)c2ccccn2)c1
  4	-3	-8	15	2.0	2.0	-0.5	5.3
(21) CCOC(=O)C1CCN(C(=O)COc2ccc(N(C)S(=O)(=O)c3ccc(C)cc3)cc2)CC1
  -3	6	-1	14	1.4	-0.4	0.8	-0.4
(22) COc1ccc(N(C(=O)Cc2cccs2)C(C(=O)NC2CCCCC2)c2cccn2C)cc1 (stereo not given)
  -7	-2	8	-11	-2.2	2.1	1.8	-3.0
(23) Nc1cc(=O)[nH]c(=S)n1-c1cccc(C(F)(F)F)c1
  18	-4	-9	-8	3.0	1.8	0.0	1.0
(24) CC(C)(C)OC(=O)C[C@H]1C/C=C\C[C@H](CC(=O)N[C@H](CO)Cc2ccccc2)C(=O)N2CCC[C@H]2COC1=O
  /	-1	-1	/	/	0.8	0.7	-332
(25) O=C1c2ccccc2C(=O)N1n1c(=O)[nH]c2ccccc2c1=O
  5	-14	-9	/	2.2	-0.3	0.2	-0.7
(26) O=C(CN1CCN(S(=O)(=O)c2ccc(Cl)cc2)CC1)Nc1ccc(F)cc1F
  -2	-2	3	17	0.3	5.4	0.3	4.2
(27) O=C(CCNS(=O)(=O)c1cccc2nsnc12)NCc1ccc(F)cc1
  2	11	-6	-10	-3.9	0.4	1.5	-2.8
(28) CN(CC(=O)Nc1ccccc1Cl)CC(=O)N1CCc2ccccc21
  /	-5	-5	/	/	-1.5	0.4	2.9
(29) C#Cc1ccc([C@@H]2C=C(C(=O)N3CCOCC3)O[C@H](OCc3ccc(CO)cc3)C2)cc1
  9	7	0	7	0.7	3.5	0.4	1.0
(30) NC(=O)COC(=O)C12CC3CC(CC(O)(C3)C1)C2
  12	2	-4	-10	?	-1.6	0.6	-2.0
(31) Clc1nccnc1N/N=C/c1ccc(Br)cc1
  19	-12	23	-18	-2.6	/	-13	8.7
(32) O=C(NC1CCCCC1)C1CCCN(S(=O)(=O)c2ccc(F)cc2)C1 (stereo not given)
  -15	4	-3	11	-1.2	4.1	-0.2	0.8
(33) CCC1=Nc2cc(C(=O)NCCCOC)ccc2Sc2ccccc21
  -5	25	-7	56*	2.2	4.2	0.5	5.0
(34) CC(C)C(NC(=O)CCNC(=O)c1ccc(C(C)(C)C)cc1)c1nc2ccccc2[nH]1 (stereo not given)
  /	8	3	/	/	3.4	-0.6	-1.0
(35) C=CCn1c(CCNC(=O)c2cccs2)nnc1SCC(=O)c1cccc([N+](=O)[O-])c1
  26	106*	-2	-3	-8.0	2.5	0.2	-2.3
(36) CCC/C(O)=C1\C(=O)CC(C)(C)CC1=Nc1ccc(OC)cc1OC
  -2	-6	4	9	0.4	5.0	0.1	1.8
(37) COc1cc2c(cc1OC)C(COc1ccccc1OC)N(C(C)=O)CC2 (stereo not given)
  -1	-6	/	-4	0.6	0.6	-0.2	8.5
(38) CCCCNC(=O)OCC(CC)NC(=O)OCC(C)C (stereo not given)
  -4	0	-6	-1	2.8	-2.1	-0.1	2.4
(39) Cc1ccc(/C=C(\NC(=O)c2ccccc2)C(=O)NCCN2CCOCC2)o1
  -4	2	-2	-5	2.6	9.0	-1.0	-4.8
(40) CC(=O)Nc1ccc(Cc2nc3ccccc3[nH]2)cc1
  -9	-1	2	-7	4.1	4.0	0.1	0.3
(41) Cc1ccc(/C=C2/NC(=O)N(Cc3ccccc3F)C2=O)s1
  -5	6	-5	4	3.4	2.9	-0.1	4.1
(42) COc1cc(NC(=O)C2CC(=O)NC3=C2C(=O)CCC3)cc(OC)c1 (stereo not given)
  -19	-6	-8	2	?	5.7	-0.4	2.4
(43) Cc1cc(CN2C(=O)c3ccccc3C2=O)on1
  -23	-4	-2	-1	/	5.0	0.6	6.8
(44) O=C(CC(=O)Nc1ccccc1)Nc1ccccc1
  -9	-9	/	-23	2.4	3.3	0.2	0.3
(45) CCCC(=O)Nc1nnc(S(=O)(=O)N(C)Cc2ccco2)s1
  2	2	-7	-4	2.4	/	1.5	-2.7
(46) Cc1onc(-c2c(F)cccc2Cl)c1C(=O)NCc1ccccn1
  15	-6	0	-4	-0.5	1.1	0.9	0.1
(47) CCn1nc(C(=O)OCC(=O)N2c3ccccc3CC2C)c2ccccc2c1=O (stereo not given)
  17	4	-2	-3	5.9	3.5	-0.3	4.0
(48) N#CC1=C(N)C2=CCCC[C@H]2[C@H](c2ccc(Br)cc2)C1(C#N)C#N
  /	17	3	/	/	0.8	1.6	4.4
(49) Cn1cccc1C(=O)OCC(=O)N1CC(=O)Nc2ccccc21
  0	-2	-1	-18	-1.6	0.7	0.1	4.2
(50) COc1ccc(Nc2c3c(c(C#N)c4nc5ccccc5n24)CCC3)cc1
  -1	-5	2	7	-3.0	0.4	0.0	1.5

More compounds.
Values in the order: Calb FLC	Beta2AR agonist	Beta apoptosis	T cruzi inh	RanGTP-Impb inh	UCH37 DUB inh	Bfl-1 A1 inh	LANA-H2B inh
(51) COc1cccc(/C=N/NC(=O)c2ccc([N+](=O)[O-])cc2Cl)c1O
  34	5	88*	-10	0.0	/	-0.4	-9.8
(52) O=C(NNC(=O)C1CC(c2cccs2)=NO1)NC1CCCCC1 (stereo not given)
  -9	7	-2	-3	1.5	-1.9	0.2	3.9
(53) Cc1ncc(CO)c(/C=N/Nc2ccc(C(F)(F)F)cn2)c1O
  59	-14	116*	30	7.9	/	-0.1	2.4
(54) Cc1ccc2nc3c(c(Nc4ccc5c(c4)OCCO5)c2c1)CCC3
  11	9	21	33	-2.3	-1.4	-0.6	3.3
(55) COc1cccc(C2CC(=O)NC3=C2C(=O)CCC3)c1 (stereo not given)
  7	-1	-1	1	3.1	4.2	-0.1	4.4
(56) CC1=NN(C(=O)COc2cc(C)ccc2C(C)C)C(O)(c2ccccc2)C1 (stereo not given)
  4	-3	/	18	-2.9	3.3	-1.4	-0.7
(57) NS(=O)(=O)c1ccc(CCNC(=O)COc2ccc3c4c(c(=O)oc3c2)CCC4)cc1
  0	-13	-3	-15	-0.5	-10	0.3	1.2
(58) CCS(=O)(=O)Nc1ccc(-c2nnc(SCC(=O)OC)o2)cc1
  -1	8	2	-9	0.5	5.4	0.5	4.9
(59) O=C1C2=C(SCCS2)C(=O)N1c1ccccc1
  -2	-2	-3	-18	-5.4	2.7	0.8	0.6
(60) CC(C)(C)c1nnc(NS(=O)(=O)c2cc(Cl)ccc2Cl)s1
  6	-8	/	-5	0.4	0.1	0.9	-0.2
(61) CSc1ccccc1NC(=O)N1CCCC(C(=O)c2ccc3c(c2)OCO3)C1 (stereo not given)
  2	-5	3	-5	4.2	1.8	0.1	-5.1
